MARV entry inh: Marburg virus entry inhibition. Marburg virus pseudotyped entry inhibition, cell reporter; control for the full effect not named in the record; about a third of the inactives were read at about 46 µM. AID 540276. 300,000 tested, 1.8% active. Potency, µM (series often up to 37.8 µM), inactives show at the highest dose activity change, negative = inhibition, most hits filed as inhibitors; active = well fitted inhibition curve with a large enough effect; inconclusive = small, poorly fitted or top-dose-only effect, or effect the other way; inactive = flat fitted curve, though single readings scatter; tested in HEK293 cells; about a fifth of its hits are not listed in these tables; further: on the % scale 0 is the no-effect control and ±100 the full control effect; luciferase read-out
LASV entry inh: Lassa virus entry inhibition. 300,000 tested, 1.2% active. Potency, µM (highest dose often 37.9 µM), for inactives: at the highest dose activity change, negative = inhibition, actives largely listed as inhibitors. Lassa virus pseudotype entry inhibition, cell reporter; control for the full effect not named in the record; active means well fitted inhibition curve with a large enough effect; inconclusive means small, poorly fitted or top-dose-only effect, or effect the other way; inactive means flat fitted curve, though single readings scatter; tested in HEK293 cells; further: on the % scale 0 is the no-effect control and ±100 the full control effect; nearly all actives have a fitted effect of over 50% in size; luciferase read-out
RE007 growth inh: less growth of the S. pombe RE007 Vpr strain. S. pombe RE007 Vpr strain, BacTiter-Glo ATP luminescence, 24 h; control for the full effect not named in the record. AID 651644. Potency, µM (titrated, usually from 92.2 µM), for inactives: top-dose activity change, negative = less growth. 360,000 tested, 0.21% active; active = well fitted falling curve with a large enough effect; inconclusive = small, poorly fitted or top-dose-only effect; inactive = no such curve, though single readings can be large or run the other way;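 further: on the % scale 0 is the no-effect control and ±100 the full control effect; nearly all actives have a fitted effect of over 50% in size; the assay follows cell death caused by Vpr and the record does not say whether a fall means rescue or toxicity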
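Fission yeast strain RE007, carrying one chromosomally integrated HIV-1 vpr copy, was seeded at OD 0.01 in PMG+AL medium with 23 nL pinned compound. After 24 h at 30 °C and 99% humidity, viability was read by BacTiter-Glo luminescence.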
SARS PLP yeast: inhibitors of SARS-CoV papain-like protease in yeast; S. cerevisiae expressing SARS-CoV PLpro, growth rescue; control for the full effect not named in the record; Potency, µM (doses to about 32.9 µM), inactives show top-dose activity, positive = growth rescue; 330,000 tested, 0.19% active; AID 485353; further: 0% is about no effect; nearly all actives have a fitted effect of over 55% in size; growth read by luminescence after 48 h
Cruzain Triton: cruzain (T. cruzi) inhibition with detergent; purified cruzain, Z-FR-AMC fluorescence, 0.01% Triton; Potency, µM, for the others: max response, negative = inhibition, hits mostly inhibitors; 200,000 tested, 0.43% active; active means well fitted curve in the direction sought with a large enough effect; inconclusive means small, poorly fitted or top-dose-only effect, or another doubt; inactive means no such curve, though single readings can be large; an effect the other way counts as inactive or inconclusive;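 further: plate controls were neutral wells for no effect and buffer without enzyme for full effect; nearly all actives have a fitted effect of over 40% in size; top concentration of the series not given in the record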
Target sequence (P25779 123-467 limits assumed): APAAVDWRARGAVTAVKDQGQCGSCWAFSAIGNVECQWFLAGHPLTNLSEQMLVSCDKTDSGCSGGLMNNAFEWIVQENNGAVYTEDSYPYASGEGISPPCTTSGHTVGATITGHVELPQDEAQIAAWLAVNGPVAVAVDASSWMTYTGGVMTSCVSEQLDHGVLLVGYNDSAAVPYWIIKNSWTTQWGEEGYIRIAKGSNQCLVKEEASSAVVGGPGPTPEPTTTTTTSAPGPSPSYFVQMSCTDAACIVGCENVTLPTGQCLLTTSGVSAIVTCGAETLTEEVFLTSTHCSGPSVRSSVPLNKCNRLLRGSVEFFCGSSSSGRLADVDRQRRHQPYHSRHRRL
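Sodium acetate buffer (100 mM, pH 5.5) containing 5 mM DTT and 0.01% Triton X-100 hosted 1.5 nM cruzain and test compound for 15 min at room temperature. Cleavage of 2 uM Z-FR-AMC was then tracked by fluorescence.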
Cruzain noTriton: blocks cruzain activity in detergent-free assay; P25779; purified cruzain, Z-FR-AMC fluorescence, no detergent; Potency, µM, for inactives: max response, negative = inhibition, usual class: inhibitors; 200,000 tested, 2.3% active; AID 1476; active means well fitted curve in the direction sought with a large enough effect; inconclusive means small, poorly fitted or top-dose-only effect, or another doubt; inactive means no such curve, though single readings can be large; an effect the other way counts as inactive or inconclusive;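 further: plate controls were enzyme without inhibitor for no effect and buffer without enzyme for full effect; nearly all actives have a fitted effect of over 40% in size; top concentration of the series not given in the record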
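Purified cruzain at 1.5 nM, pre-incubated 15 min with compound at room temperature in 100 mM sodium acetate pH 5.5, 5 mM DTT, 0.00005% Triton X-100. Reaction started with 2 uM Z-FR-AMC; AMC fluorescence increase over 60 s gives rate.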
2A StopGo: lowers the luciferase signal of an FMDV 2A StopGo reporter. human cells with a luciferase reporter of 2A StopGo recoding; control for the full effect not named in the record. Potency, µM (highest dose often 57.9 µM), for the others: at the top dose signal change, negative = less light. 410,000 tested, 1.2% active; active = well fitted falling curve with a large enough effect; inconclusive = small, poorly fitted or top-dose-only effect; inactive = no such curve, though single readings can be large or run the other way; tested in HEK293T cells; further: on the % scale 0 is the no-effect control and ±100 the full control effect; nearly all actives have a fitted effect of over 45% in size; luciferase light after 4 h
NS1 function inh: inhibitors of influenza NS1 protein function | S. cerevisiae slowed by influenza A NS1, growth recovery by OD600 | Potency, µM (doses to about 46.1 µM), for the others: top-dose activity, positive = more growth | 270,000 tested, 0.4% active | AID 2326; further: actives are rising curves; nearly all actives have a fitted effect of over 50% in size
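Recovery from NS1-induced slow growth read by OD600 in budding yeast switched to galactose assay medium (pH 6.0, -URA) at 1:100 dilution. Compound 23 nl per well; the matching strain lacking NS1 serves as control.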
Active calls of the source: *; ? = inconclusive; nt = no result given; & = joins results of further samples; [ ] = another dose, or the depositor's remark. Unless noted, the call rests on the fitted dose curve; in most records, active means well fitted rising curve with a large enough effect; inconclusive means small, poorly fitted or top-dose-only effect; inactive means no such curve, though single readings can be large or run the other way. Potency means the concentration at half of the fitted maximal effect.

#	compound	MARV entry inh	LASV entry inh	RE007 growth inh	SARS PLP yeast	Cruzain Triton	Cruzain noTriton	2A StopGo	NS1 function inh
1	COc1ccc(CCNC(=O)COC(=O)/C=C/c2cccs2)cc1OC	4%	12%	14%	3%	nt	nt	-22%	nt
2	CCC(C)(C)c1nnc(NC(=O)c2ccc([N+](=O)[O-])cc2)s1	3%	0%	1%	18%	4.9%	?	33%[activator]	-3%
3	O=C1OCCC1Sc1nnc(-c2cccs2)n1Cc1ccccc1 (stereo not drawn)	?	2%	-5%	?	1.9%	-8%	-3%	-1%
4	COc1cccc(NC(=O)c2ccco2)c1	6%	0%	-24%	-13%	-0.5%	-2%	22%	-35%
5	CC(=O)c1c(C)[nH]c(C(=O)N(C)C(c2ccccc2)c2ccccc2)c1C	?	?	31%	-1%	nt	nt	22%	nt
6	Cc1ccc(CNC(=O)Cn2nc(C)n3cccc3c2=O)cc1	4%[46.1 µM]	24%[46.1 µM]	nt	nt	-4.1%	-1%	-8%	nt
7	O=C(COC(=O)c1ccc(Oc2ccccc2)cc1)Nc1nnc(-c2ccccc2)o1	-22%	11%	8%	-6%	-14%	-4%	13%	-85%
8	COc1cccc(C(=O)Nc2ccccc2C(=O)N2CCCC2)c1	-8%[46.1 µM]	-3%	11%	11%	1.6%	11%	3%	-5%
9	CCN(CCNC(=O)C1CC(=O)N(CCc2ccccc2)C1)c1ccccc1 (stereo not drawn)	-2%	-10%	12%	2%	11%	?	-10%	-13%
10	CN1CC(=O)N(CC(=O)NCc2ccc(F)cc2)c2ccccc2C1=O	18%	-6%	3%	-2%	-0.1%	1%	-13%	-6%
11	COc1ccc(Cl)cc1C(=O)Nc1cccnc1	nt	nt	-6%	0%	nt	nt	-3%	-15%
12	CCOC(=O)c1sc(NC(=O)c2cc3c(C)nn(-c4ccccc4)c3s2)nc1C	nt	nt	nt	2%	1.4%	5%	nt	-2%

(further entries)
#	compound	MARV entry inh	LASV entry inh	RE007 growth inh	SARS PLP yeast	Cruzain Triton	Cruzain noTriton	2A StopGo	NS1 function inh
13	CC(=O)N1CCC(=NNc2ccc(S(N)(=O)=O)cc2[N+](=O)[O-])CC1	0%[46.1 µM]	-12%	7%	0%	nt	nt	-15%	1%
14	COc1ccc(/C=C/C(=O)NNC(=O)c2cc(C)oc2C)cc1	-8%	?	-9%	-2%	nt	nt	-26%	nt
15	Fc1ccc(-n2ncc3c(N4CCN(c5ccccc5F)CC4)ncnc32)cc1	nt	26%[46.1 µM]	nt	nt	9.7%	4%	-19%	nt
16	Cc1ccccc1NC(=O)NC1(C(=O)N2CCCC2)CCCCC1	3%	9%	15%	0%	nt	nt	1%	0%
17	Cn1cc(C(=O)N/N=C/c2ccc([N+](=O)[O-])cc2)c2ccccc21	?	7%	0%	2%	nt	nt	7%	1%
18	CCCC(=O)OC/C(O)=C(\C#N)c1nc2ccccc2[nH]1	?	-25%	4%	0%	nt	nt	-11%	0%
19	CCCNC(=O)/C(=C/c1cn(S(=O)(=O)N(C)C)c2ccccc12)NC(=O)c1ccc(OC)cc1	?	-29%[46.1 µM]	3%	-4%	nt	nt	4%	nt
20	COc1cc2nc(N3CCN(c4cc(C)ccc4C)CC3)nc(N)c2cc1OC	4.5µM*	?	30%	-4%	nt	nt	25µM*	1%
21	CCOc1ccccc1NS(=O)(=O)c1ccc2[nH]c(=O)ccc2c1	nt	nt	1%	-1%	nt	nt	-27%	1%
22	CC(C)CCNC(=O)CCCOc1cc(=O)n(C)c2ccccc12	-5%	-10%	19%	4%	2.3%	1%	-14%	-4%
23	CCOC(=O)N1CCN(C(=O)C2CCCN(S(=O)(=O)c3cc(C)ccc3OC)C2)CC1 (stereo not drawn)	10%	3%	9%	4%	1.9%	28%	nt	-5%
24	CCOC(=O)c1c(C)[nH]c(C(=O)COC(=O)CNC(=O)C2CCCCC2)c1C	-4%	-4%	4%	-4%	?	7.9µM*	0%	-4%

Given field by field: entries from further up
21: CCOc1ccccc1NS(=O)(=O)c1ccc2[nH]c(=O)ccc2c1
  MARV entry inh = nt	LASV entry inh = nt	RE007 growth inh = 1%	SARS PLP yeast = -1%	Cruzain Triton = nt	Cruzain noTriton = nt	2A StopGo = -27%	NS1 function inh = 1%

22: CC(C)CCNC(=O)CCCOc1cc(=O)n(C)c2ccccc12
  MARV entry inh = -5%	LASV entry inh = -10%	RE007 growth inh = 19%	SARS PLP yeast = 4%	Cruzain Triton = 2.3%	Cruzain noTriton = 1%	2A StopGo = -14%	NS1 function inh = -4%

Additional entries.
#	compound	MARV entry inh	LASV entry inh	RE007 growth inh	SARS PLP yeast	Cruzain Triton	Cruzain noTriton	2A StopGo	NS1 function inh
25	COc1ccc(C(OC(=O)c2ccco2)C(=O)NC2CCCC2)cc1 (stereo not drawn)	22%[46.1 µM]	-15%	-13%	-9%	nt	nt	4%	10%
26	CC(=O)[C@@]1(O)CC[C@H]2[C@@H]3C[C@H](C)C4=CC(=O)CC[C@]4(C)[C@H]3CC[C@@]21C	-27%	?	-9%[18.4 µM]	-37%	-1.2%&0.7%	-3%&4%	28µM*	-12%
27	Cc1cccc(C(=O)N(Cc2nc3ccccc3c(=O)[nH]2)C2CCCC2)c1	?	?	2%	0%	nt	nt	-25%	-4%
28	NNC(=O)c1nc[nH]c1C(=O)Nc1ccc(Cl)cc1C(=O)c1ccccc1	nt	nt	-5%	-10%	nt	nt	-6%	24%
29	COc1ccc2cc(C(C)C(=O)N3CCC(C)CC3)ccc2c1 (stereo not drawn)	?	?	37%	-53%	nt	nt	-6%	-107%
30	Cc1cn2c(=O)c(S(=O)(=O)NCc3ccc(F)cc3)c(C)nc2s1	nt	-15%[46.1 µM]	nt	nt	-1.8%	0%	-19%	nt
31	Cc1ccc(C)c(OCCC(=O)NNC(=O)c2ccccc2F)c1	3%[46.1 µM]	15%	4%	4%	nt	nt	-11%	nt
32	CC1CCCCN1CCNC(=O)c1cc2c(-c3ccccc3F)nn(C)c2s1 (stereo not drawn)	nt	nt	-8%	4%	-6.3%	5%	-10%	3%
33	CCc1ccc(C(=O)COC(=O)c2cc([N+](=O)[O-])ccc2NCCO)cc1	?	?	-1%	-49%	-9.3%	18%	-25%	1%
34	CCOC(=O)c1c(C)[nH]c(CCC(=O)Nc2ccc(Cl)cc2C)c1C	nt	-18%[46.1 µM]	nt	nt	0.9%	4%	-23%	nt
35	CCC(C)(C(=O)NC1CCCCC1)N(C(=O)C1CCC(=O)N1)c1ccc(C)cc1 (stereo not drawn)	-2%[46.1 µM]	-22%	-2%	8%	-1.7%	6%	-5%	2%
36	CCOC(=O)CSc1cc(-c2ccccc2)nc2ncnn12	-16%[14.2 µM]	5%	-10%	-2%	nt	nt	?	0%

More records follow:
#	compound	MARV entry inh	LASV entry inh	RE007 growth inh	SARS PLP yeast	Cruzain Triton	Cruzain noTriton	2A StopGo	NS1 function inh
37	CC1CC(C)CN(CCCNS(=O)(=O)c2cc(Br)cc3c2N(C(=O)C2CC2)CC3)C1 (stereo not drawn)	?	?	-7%	-2%	nt	nt	28%	-13%
38	CCOC(=O)CNC(=O)CSc1nnc(NC(=O)c2ccc(S(=O)(=O)N3CCOCC3)cc2)s1	-1%	2%	12%	-6%	nt	nt	-1%	-7%
39	COc1ccc(S(=O)(=O)NCc2ccccn2)cc1Br	-6%[46.1 µM]	-2%[46.1 µM]	-1%	4%	nt	nt	15%	8%
40	COc1cc(OC)c(NC(=O)c2ccc(-n3cnc4cccnc43)cc2)cc1Cl	nt	?	nt	nt	-4.8%	-2%	2%	nt
41	CCc1ccc(NC(=O)Cn2c(=O)n(Cc3ccco3)c(=O)c3oc4ccccc4c32)cc1	nt	15%[46.1 µM]	nt	nt	1.3%	1%	-34%	nt
42	O=C(Nc1ccccc1N1CCCCC1)c1ccc(N2C(=O)c3ccccc3C2=O)cc1	3%	-3%	26%	-2%	0.2%	?	0%	7%
43	CCc1cccc(C)c1NC(=O)CSc1ncn[nH]1	4%	12%	6%	0%	-5.0%	-8%	4%	-1%
44	O=C(Nc1cc2c3c(c1)C1CCCC1CN3CC1CCCC21)c1ccccc1 (stereo not drawn)	-16%	-26%	-5%	-12%	-2.6%	?	-28%	9%
45	Cc1cc(C)nc(NC(=O)c2c(C(=O)O)noc2C)n1	17%[46.1 µM]	-7%[46.1 µM]	16%	-1%	nt	nt	9%	nt
46	COc1ccc(-c2cn3cc(C)ccc3n2)cc1Br	14µM*	?	-27%	-32%	-5.6%	3%	0%	-9%
47	Cc1cc(Cl)ccc1NC(=O)CN1CCCC1	-5%[46.1 µM]	?	-2%	4%	nt	nt	-12%	6%
48	O=C(CCCN1C(=O)c2ccccc2C1=O)Nc1ccccn1	-2%	-3%	-2%	0%	-0.5%	8%	-15%	-2%

Carrying on.
#	compound	MARV entry inh	LASV entry inh	RE007 growth inh	SARS PLP yeast	Cruzain Triton	Cruzain noTriton	2A StopGo	NS1 function inh
49	Cc1ccc(NS(=O)(=O)c2cc(NC(=O)C(C)Oc3ccccc3)ccc2C)c(C)c1 (stereo not drawn)	4.6µM*	?	1%	-5%	-5.6%	16%	13%	?
50	CC(=O)c1cccc(NC(=O)CN(c2cccc(F)c2)S(C)(=O)=O)c1	-3%	0%	-14%	8%	0.5%	1%	-9%	-4%
51	O=C(COC(=O)c1ccc(Cl)cc1)NC1CCCCCC1	?	13%	17%	-2%	nt	nt	-1%	nt
52	Cc1ccc(C(=O)OCC(=O)NNC(=O)COc2ccc(Cl)cc2)c(O)c1	10%[46.1 µM]	-26%	-4%	-5%	nt	nt	-11%	nt
53	CCCCOc1ccc(CN2CCN(CCO)CC2)cc1	?	2%	-5%	0%	-2.6%	6%	42%[activator]	-6%
54	Cc1cccc(N/C=C(\[N+](=O)[O-])S(=O)(=O)c2ccccc2)c1	?	18%	13%	4%	nt	nt	12%	nt
55	CC(C)(C)NC(=O)NC(=O)COC(=O)CNC(=O)c1cccc(F)c1	2%	2%	24%	-6%	22µM*	?	-21%	-28%
56	Cn1c(N)c(C(=O)CSc2ncn[nH]2)c(=O)n(C)c1=O	-1%[46.1 µM]	9%	20%	0%	nt	nt	15%	1%
